Compound activity from PubChem.
AF4-AF9 inh = blocks AF4 peptide binding to human AF9. P42568. AlphaScreen, biotin-AF4 peptide binding to FLAG-AF9. inhibition, % at 10 µM. 350,000 tested, 0.47% active. AID 651704;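 active = every replicate reaching a set inhibition limit, whatever the replicate mean, cut at about 25% in these data; inconclusive = mean inhibition reaches that limit but some replicates miss it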;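 also: 0% = plate neutral control median and 100% = total signal loss; the record names both 10 and 1 µM as test concentration; the first replicate is given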
Target sequence (P42568 whole entry, looked up): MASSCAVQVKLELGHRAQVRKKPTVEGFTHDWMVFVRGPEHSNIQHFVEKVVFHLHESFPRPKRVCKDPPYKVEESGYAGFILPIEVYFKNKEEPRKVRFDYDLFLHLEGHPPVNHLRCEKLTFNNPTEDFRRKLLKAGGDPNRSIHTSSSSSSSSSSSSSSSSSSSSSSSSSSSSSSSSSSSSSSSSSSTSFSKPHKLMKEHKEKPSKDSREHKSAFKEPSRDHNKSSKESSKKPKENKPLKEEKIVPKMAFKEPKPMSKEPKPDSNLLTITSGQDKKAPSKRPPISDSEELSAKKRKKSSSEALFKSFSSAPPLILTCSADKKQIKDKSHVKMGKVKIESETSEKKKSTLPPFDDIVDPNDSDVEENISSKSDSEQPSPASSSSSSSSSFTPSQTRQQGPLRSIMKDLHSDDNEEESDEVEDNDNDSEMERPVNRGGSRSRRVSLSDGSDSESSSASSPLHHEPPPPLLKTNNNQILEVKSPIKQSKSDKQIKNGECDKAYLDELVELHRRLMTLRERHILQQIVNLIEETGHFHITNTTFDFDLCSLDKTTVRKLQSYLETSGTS
RanGTP-Impb inh = inhibitors of RanGTP-importin-beta interaction, primary screen, biochemical, FRET, CFP-Ran, YFP-importin-beta, homogeneous; 300,000 tested, 1.1% active; AID 2216; inhibition, % (test concentration not listed); cell-free CFP-Ran/YFP-importin-beta FRET ratio;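 active = most replicates above 15%; inconclusive = exactly half above 15%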;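 also: 0% = DMSO wells and 100% = Ran loaded with GDP instead of GTP; wells of about 40 µL received 100 nL stock; the first replicate is given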
Beta apoptosis = blocks beta cell apoptosis. INS-1E cytokine-induced death, ATP luminescence, 48 h; percent of positive-control rescue, neutral wells zero. protection from apoptosis, % (concentration not given with the values). 300,000 tested, 0.8% active. AID 435005;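 active = all replicates at 75% or more, or half of them and the mean; inconclusive = half reach 75% but not the mean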;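 also: 0% = cytokine-treated negative control wells and 100% = positive control rescue; higher means more ATP so stronger rescue from cytokine killing; wells of about 40 µL received 100 nL stock; the first replicate is given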
Vif TR-FRET = inhibitors of Vif binding to APOBEC3G peptide, primary screen, biochemical, TR-FRET, GST-Vif 1-94, biotin-A3G peptide, dose response retest (AID 1117319); TR-FRET GST-Vif / biotin-A3G peptide binding; higher % means a stronger effect; test concentration not given here; strong numbers were not always called active; one-dose inhibition, %; IC50 in µM for titrated hits; 260,000 tested, 0.57% active;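 active = above the screen mean plus three standard deviations and confirmed in dose response; inconclusive = results disagree or hit not tested in dose response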;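 also: Vif residues 1-94 fused to GST binding biotinylated APOBEC3G peptide 110-148; 0% = full assay without inhibitor and 100% = GST in place of GST-Vif; retest series ran down from 100 µM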
Calb FLC = C. albicans growth modulation with fluconazole; C. albicans CaCi-2 (fluconazole-resistant clinical isolate) + fluconazole, Alamar Blue growth, 48 h; growth inhibition, % (test concentration not listed); 300,000 tested, 0.57% active;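 active = most replicates above 75%; inconclusive = exactly half above 75%; inactive = most below 75%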;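 also: all wells also contain fluconazole at 8 µg/ml as a sub-toxic cotreatment; 0% = median of DMSO wells and 100% = median of geldanamycin control wells; wells of about 8 µL received 7.5 nL stock; the first replicate is given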
LANA-H2A inh = blocks KSHV LANA binding to histone H2A/H2B; cell-free LANA-H2A/H2B peptide, fluorescence polarization; inhibition, % (test concentration not listed); 320,000 tested, 0.6% active; in the data active = inhibition mostly above about 10%, no sharp cut-off; inactive = mostly below about 6.7%;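 also: stock transfer was 7.5 nL into about 10 µL; 0% = median of vehicle wells and 100% = median of positive control wells; one replicate is shown; the record names a cut of 25% in any replicate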
Bfl-1 A1 inh = inhibitors of the anti-apoptotic protein A1, read as caspase activation | MEF A1-2A-BIM cells, Caspase-Glo 3/7 luminescence, 3 h; percent of clofoctol response, vehicle zero | caspase activation, % (no concentration beside the values) | 330,000 tested, 0.066% active | AID 2462;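 active = over half of replicate activation scores above 10%, or exactly half above 10 with the replicate mean above 10; inconclusive = replicate mean below 10 yet half the replicates above 10; inactive = over half of replicates below 10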;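 also: wells of about 30 µL received 50 nL stock; many hits fall short of the cut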
T cruzi inh = blocks replication of Trypanosoma cruzi. T. cruzi beta-gal in NIH3T3, luminescence, 90 h. AID 1885. inhibition, % (concentration not given with the values). 300,000 tested, 1.4% active;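 active = mean inhibition across valid replicates above about 55%, limit read from the data; inconclusive = mean below that limit but half or more replicates reach it; inactive = mean below it, under half of replicates reach it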;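 also: signal also drops with host cell toxicity which is not excluded here; 0% = plate median of DMSO wells and 100% = zero luminescence signal; higher percent means less beta-gal luminescence so fewer parasites; stock transfer was 50 nL into about 50 µL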
Active calls of the source: *; ? = inconclusive; . = no result given.

Letters – A = AF4-AF9 inh; B = RanGTP-Impb inh; C = Beta apoptosis; D = Vif TR-FRET; E = Calb FLC; F = LANA-H2A inh; G = Bfl-1 A1 inh; H = T cruzi inh
[1] Cc1ccc(N(C(=O)CCC(=O)Nc2ccccn2)C(C(=O)NC(C)C)c2ccc(F)cc2)cc1 (stereo not given)
  A = 0.4; B = 1.5; C = -1; D = .; E = 0; F = 18*; G = 0.0; H = -20

[2] Cc1ccc(C(=O)NNC(=O)C(C)Oc2ccccc2F)cc1S(=O)(=O)N1CCOCC1 (stereo not given)
  A = -0.6; B = 3.7; C = 4; D = -1%; E = -3; F = 2.5; G = 0.6; H = 9

[3] CC(C)CN(CC(C)C)C(=O)Nc1cccc([N+](=O)[O-])c1
  A = 1.2; B = -0.3; C = -5; D = 0%; E = -1; F = -1.4; G = -1.2; H = 3

[4] Cc1ccc(S(=O)(=O)NCCNc2ccc([N+](=O)[O-])cc2C(F)(F)F)cc1
  A = .; B = 0.3; C = -1; D = -2%; E = -6; F = 10; G = 0.5; H = 26

[5] COc1ccc(-c2nnc(SCC#N)o2)cc1
  A = .; B = 4.3; C = -1; D = 4%; E = 4; F = 5.5; G = 1.1; H = 4

[6] CCc1ccc(-c2nc(NC(=S)NC(=O)c3cccs3)sc2C)cc1
  A = 3.6; B = 0.6; C = 4; D = 19%; E = -2; F = -0.3; G = -1.3; H = 6

[7] Cc1ccc(C)c(NC(=S)NC(NC(=O)Cc2ccccc2)C(Cl)(Cl)Cl)c1 (stereo not given)
  A = .; B = 2.9; C = 46; D = -1%; E = -26; F = 2.5; G = 0.2; H = 17

[8] CCOc1ccc(CCNC(=O)c2ccc(OCc3c(C)noc3C)cc2)cc1OCC
  A = 1.3; B = -2.9; C = 4; D = -2%; E = .; F = -0.8; G = -0.2; H = 3

[9] O=C(O)c1ccc(NC(=O)c2ccccc2NC(=O)c2cccc(F)c2)cc1
  A = 0.6; B = -3.1; C = -5; D = -5%; E = -9; F = 2.9; G = -0.1; H = -2

[10] COc1cccc(CNC(=O)CCC(=O)N2CC(C)Oc3ccccc32)c1OC (stereo not given)
  A = -8.4; B = 1.7; C = 4; D = .; E = 4; F = 2.2; G = 0.2; H = -19

[11] O=c1c2ccccc2nc(CSc2nnnn2-c2ccccc2)n1-c1ccccc1Cl
  A = .; B = 5.2; C = 17; D = 7%; E = 3; F = 2.5; G = -0.3; H = -3

[12] Cc1cccc(-n2c(-c3csc(C)c3C)n[nH]c2=S)c1
  A = 2.6; B = -3.4; C = -8; D = 5%; E = 40; F = -2.5; G = 0.0; H = 6

[13] O=[N+]([O-])c1ccc(O)c(CN2CCCCCC2)c1
  A = 1.7; B = 2.9; C = -4; D = 10%; E = -2; F = -0.8; G = 0.0; H = -7

[14] Cc1cc(C)cc(NC(=O)c2ccc(CNc3c(N4CCCC4)c(=O)c3=O)cc2)c1
  A = 6.2; B = -0.1; C = 5; D = -4%; E = 2; F = 11; G = -0.2; H = -4

[15] Cn1c(O)c(C=NC(CC(N)=O)C(=O)O)c(=O)n(C)c1=O (stereo not given)
  A = .; B = -0.1; C = .; D = 10%; E = 3; F = .; G = .; H = -11

[16] O=S(=O)(c1ccc(Oc2ccc(Br)cc2F)nc1)N1CCCCC1
  A = .; B = 0.9; C = 4; D = -2%; E = 16; F = 3.0; G = 0.2; H = 23

[17] CCN(CC)S(=O)(=O)c1ccc2c(c1)N(CC(=O)NCc1ccccn1)C(=O)CO2
  A = ?; B = 3.7; C = 0; D = 5%; E = 6; F = -0.8; G = -0.3; H = 6

[18] CC(O)CNc1nc2c(c(=O)n(Cc3ccccc3)c(=O)n2C)n1C (stereo not given)
  A = 2.8; B = -0.2; C = -3; D = -5%; E = -5; F = -0.7; G = 3.1; H = -15

[19] CC(=O)NCCCC(=O)NN1C(=S)N(Cc2ccccc2)C(=O)C1CC(=O)Nc1cccc(C)c1 (stereo not given)
  A = -1.0; B = 0.9; C = -6; D = -8%; E = 5; F = -2.2; G = 0.1; H = 4

[20] Cc1ccc(-c2nnc(N3CCN(C(=O)c4ccco4)CC3)c3ccccc23)cc1
  A = .; B = 5.1; C = 9; D = -15%; E = 3; F = -0.3; G = -0.3; H = 0

[21] Cc1c(Cl)cccc1-n1ccnc1SCC(=O)O
  A = .; B = 2.1; C = -12; D = -9%; E = -3; F = 7.0; G = -0.6; H = -5

[22] O=C(Nc1cccc(Cl)c1N1CCCCC1)c1ccc2c(c1)OCCO2
  A = .; B = 2.9; C = 6; D = 2%; E = 0; F = -1.9; G = -0.5; H = 29

[23] CCOc1ccccc1OCC(=O)OCC(=O)c1c(C)[nH]c2ccccc12
  A = -1.7; B = 0.4; C = .; D = -3%; E = -8; F = -3.2; G = 0.2; H = 1

[24] CCc1ccc(OCCCC(=O)NCc2ccccc2)cc1
  A = .; B = 6.6; C = -10; D = -3%; E = -6; F = 0.9; G = -0.1; H = 2

[25] CCCC(=O)NNC(=O)CCC(=O)Nc1ccccc1Cl
  A = -1.8; B = 2.1; C = -6; D = .; E = 2; F = -12; G = -0.1; H = -2

Part of the list above in another layout:
Values run as follows: AF4-AF9 inh, RanGTP-Impb inh, Beta apoptosis, Vif TR-FRET, Calb FLC, LANA-H2A inh, Bfl-1 A1 inh, T cruzi inh
17) CCN(CC)S(=O)(=O)c1ccc2c(c1)N(CC(=O)NCc1ccccn1)C(=O)CO2
    ?, 3.7, 0, 5%, 6, -0.8, -0.3, 6
18) CC(O)CNc1nc2c(c(=O)n(Cc3ccccc3)c(=O)n2C)n1C (stereo not given)
    2.8, -0.2, -3, -5%, -5, -0.7, 3.1, -15

Three entries from above, ordered by their value in RanGTP-Impb inh, largest number first.
No. | canonical_smiles | AF4-AF9 inh | RanGTP-Impb inh | Vif TR-FRET | LANA-H2A inh
2 | Cc1ccc(C(=O)NNC(=O)C(C)Oc2ccccc2F)cc1S(=O)(=O)N1CCOCC1 (stereo not given) | -0.6 | 3.7 | -1% | 2.5
25 | CCCC(=O)NNC(=O)CCC(=O)Nc1ccccc1Cl | -1.8 | 2.1 | . | -12
4 | Cc1ccc(S(=O)(=O)NCCNc2ccc([N+](=O)[O-])cc2C(F)(F)F)cc1 | . | 0.3 | -2% | 10

Next section.
Letters – A = AF4-AF9 inh; B = RanGTP-Impb inh; C = Beta apoptosis; D = Vif TR-FRET; E = Calb FLC; F = LANA-H2A inh; G = Bfl-1 A1 inh; H = T cruzi inh
[26] Cc1ccc(C(=O)N(C)CC(=O)Nc2ccc(N3CCOCC3)cc2)s1
  A = 0.7; B = 1.8; C = -1; D = 1%; E = 4; F = -3.8; G = -0.2; H = -7

[27] Cc1cc(=O)[nH]c2cc(O)ccc12
  A = .; B = 0.6; C = -6; D = 0%; E = -24; F = -1.4; G = 0.1; H = -11

[28] OCCCNC(=S)NC1CCCC1
  A = -0.6; B = 8.6; C = 0; D = 6%; E = 45; F = 1.0; G = 1.4; H = -18

[29] COc1ccc(N2CCN(C(=O)CSc3nnc(-c4cc5ccccc5cc4O)n3C)CC2)cc1
  A = .; B = -0.9; C = 6; D = 8%; E = ?; F = -0.3; G = 0.1; H = 34

[30] CN1C(=O)c2ccccc2N(C)C1c1cccc(O)c1 (stereo not given)
  A = -6.6; B = 0.8; C = 1; D = -3%; E = 4; F = 3.1; G = 1.1; H = -8

[31] CCCOc1c(Br)cc(/C=N/O)cc1OC
  A = .; B = -0.8; C = -8; D = 4%; E = 3; F = 0.0; G = 0.0; H = 2

[32] O=C(CSc1ccc(Br)cc1)Nc1ccc(N2CCOCC2)cc1
  A = -1.7; B = -1.1; C = 6; D = -2%; E = -1; F = 5.0; G = 0.4; H = 0

[33] Cc1ccc(CN2C(=O)N/C(=C/c3ccc(-c4ccc(C(=O)O)cc4)o3)C2=O)cc1
  A = -2.3; B = ?; C = -2; D = ?; E = 5; F = -0.3; G = -0.6; H = 1

[34] CCN1CCN(CC(=O)Nc2cc(C)c(C)cc2[N+](=O)[O-])CC1
  A = -1.2; B = 0.9; C = -6; D = 0%; E = 1; F = 2.9; G = -1.0; H = 1

[35] CC(C)Oc1ccc(CN=C(N)N=C(N)N)cc1Cl
  A = 6.9; B = 1.4; C = -23; D = -5%; E = -23; F = 1.9; G = 0.2; H = 3

[36] Cc1noc(C)c1C(=O)OCC(=O)c1ccc[nH]1
  A = .; B = 0.8; C = 2; D = 2%; E = 2; F = -2.9; G = -0.5; H = -1

[37] N#C/C(C(N)=O)=C1/CCCN1Cc1ccccc1
  A = -1.9; B = -4.2; C = -2; D = .; E = 3; F = -2.6; G = 1.0; H = -18

[38] Cc1cccc(C(=O)OCC(=O)c2ccc3c(c2)NC(=O)CO3)c1
  A = 0.1; B = .; C = 2; D = -12%; E = .; F = -2.8; G = -8.7; H = .

[39] Cc1ccc(CNC(=O)c2ccc(CS(=O)(=O)c3ccccc3C)o2)cc1
  A = -1.7; B = 1.6; C = 7; D = -4%; E = 1; F = -1.9; G = -0.3; H = 11

[40] Cc1nn(C)c(Cl)c1CN1CCN(CCC(C)C)C(CCO)C1 (stereo not given)
  A = 0.5; B = 2.3; C = -3; D = ?; E = ?; F = -4.9; G = -0.2; H = -4

[41] COc1ccccc1Oc1ccc2c(c1)C(=O)N(c1ccccc1)C2=O
  A = .; B = 0.4; C = 6; D = -10%; E = -6; F = -1.4; G = -0.1; H = -22

[42] COc1ccc(NC(=O)c2ccc(COCC(F)(F)F)cc2)cc1OC
  A = .; B = 4.1; C = 2; D = .; E = -4; F = 4.1; G = -0.5; H = -2

[43] COCCOC(=O)C1=C(C)NC2=C(C(=O)CC(C)(C)C2)C1c1cccnc1 (stereo not given)
  A = .; B = 11; C = -2; D = 2%; E = -2; F = -5.1; G = 0.4; H = 0

[44] Cc1ccc(NCc2nnc3n2CCCCC3)c(C)c1
  A = -1.1; B = 0.3; C = -4; D = -3%; E = 30; F = 1.5; G = 0.8; H = -11

[45] CC1=CC(C)C2(CO)COC(c3ccccc3O)C1C2C (stereo not given)
  A = .; B = 2.6; C = -5; D = 11%; E = -14; F = 2.7; G = -0.1; H = -4

[46] COc1ccc(C(=O)COC(=O)c2c(-c3ccccc3)noc2C)c(OC)c1
  A = -41; B = 3.0; C = 1; D = 0%; E = 3; F = 0.0; G = 1.7; H = -16

[47] Cn1c[n+](C)cc1/C=N/O
  A = .; B = 0.3; C = -5; D = 3%; E = 1; F = 2.8; G = -0.7; H = -1

[48] COc1ccc(CCNC(=O)CCCNC(=O)Cn2cnc3sc(C)c(C)c3c2=O)cc1OC
  A = -0.3; B = -2.3; C = -9; D = 28%; E = -4; F = -1.8; G = 0.3; H = -13

[49] Cc1ccc(-n2nnc(-c3nccs3)n2)cc1
  A = -4.0; B = 4.4; C = 15; D = 0%; E = -12; F = 0.8; G = -10.0; H = -9

[50] COc1ccc(NC(=O)CC2SC(=NCC3CCCO3)NC2=O)cc1 (stereo not given)
  A = -2.6; B = 5.4; C = -1; D = 9%; E = -24; F = 0.9; G = 0.2; H = -8

[51] CCS(=O)(=O)N1N=C(c2cccc(NS(C)(=O)=O)c2)CC1c1ccccc1 (stereo not given)
  A = -8.5; B = -1.4; C = -7; D = -4%; E = -8; F = -3.5; G = 0.2; H = 11
